Screening results (PubChem)
T. gondii HeLa: T. gondii ME49Luc in HeLa cells, luciferase assay, 72 h, no IFN-y (AID 1259421); activity change, negative = inhibition, %; T. gondii ME49Luc in HeLa, luciferase, 72 h, no IFN-y; stronger effect = lower value; reference of the scale and settings of repeat entries not given here; many of its hits are not listed in these tables; actives 9.6% (n = 6,400);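 active = activity change below -70%; inconclusive = fit judged invalid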;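 note: about 20 µM from a 10 mM stock diluted 500-fold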
The depositor's hits bear a star; ? = inconclusive; & = joins results of further samples; ! = a repeat was not active.

SMILES	T. gondii HeLa
O=C1C[C@@H](c2ccc(O)cc2)Oc2cc(O)cc(O)c21	25&33
COc1cc(/C=C(\C#N)C(N)=O)cc(CSc2nc3ccccc3s2)c1O	-5
CN(C)C(=O)C(=O)c1cn(C)c2cc(Cl)c(C(=O)N3CCC(Cc4ccc(F)cc4)CC3)cc12	-34
Nc1ccc(C(=O)Nc2cccc(-c3nc(N4CCOCC4)c4oc5ncccc5c4n3)c2)cn1	-69
S=C(NCCCc1cnc[nH]1)NCCCN(Cc1ccc(Cl)c(Cl)c1)c1ccc(Br)cn1	-43
Cc1nc2c(c(=O)[nH]1)CSCC2	-10
C=CC(=O)Nc1cccc(Nc2nc(Nc3ccc(OCCOC)cc3)ncc2F)c1	-10
c1ncc(CCCC2CCNCC2)[nH]1	2
Cl/C(=C/n1cncn1)c1ccc(Cl)cc1Cl	-5
CC(=O)c1ccc2c(c1)N(CCCN1CCN(CCO)CC1)c1ccccc1S2	16

A different layout for 2 compounds above:
SMILES | T. gondii HeLa
c1ncc(CCCC2CCNCC2)[nH]1 | 2
COc1cc(/C=C(\C#N)C(N)=O)cc(CSc2nc3ccccc3s2)c1O | -5

(listing goes on)
SMILES	T. gondii HeLa
CC1=C(/C=C/C(C)=C/C=C/C(C)=C/C=O)C(C)(C)CCC1	16
COc1ccccc1C1(O)CCN(CCCn2c3ccccc3c3ccccc32)CC1	-73*!
CCCn1c(=O)c2[nH]c(C34CC5CC(CC3C5)C4)nc2n(CCC)c1=O	-10
O=C(NOCC(O)CO)c1cc(Br)c(F)c(F)c1Nc1ccc(I)cc1F (stereo not drawn)	9
C/C(=C(/CCO)SSCC1CCCO1)N(C=O)Cc1cnc(C)nc1N (stereo not drawn)	15
CCC(=O)NC1Cc2ccccc2C(c2ccccc2)C1 (stereo not drawn)	16&11
O=c1[nH]c(=O)n([C@H]2C[C@H](O)[C@@H](CO)O2)cc1Br	13
COc1cc2c(cc1OC)-c1cc(=Nc3c(C)cc(C)cc3C)n(C)c(=O)n1CC2	7&29
O=C(O)C1=C(CSc2nnnn2CS(=O)(=O)O)CS[C@@H]2[C@H](NC(=O)[C@H](O)c3ccccc3)C(=O)N12	15
CN(C)c1nc(N)c(C(=O)Nc2cccnc2)nc1Cl	219&157
CC(C)=CCC[C@](C)(O)[C@H]1CC[C@]2(C)[C@@H]1[C@H](O)C[C@@H]1[C@@]3(C)CC[C@H](O)C(C)(C)[C@@H]3[C@@H](O)C[C@]12C	8
Nc1ncnc2c1c(-c1cnc3[nH]ccc3c1)nn2C1CCCC1	-82*
Cc1c(C2CCN(CCc3ccccc3)CC2)noc1-c1ccc(Cl)cc1	-41&-63
CCCCCCCCCCCC[C@H](C(=O)O)[C@@H](C)C(=O)O	2
O=C(O)c1nc(=O)[nH]c(=O)[nH]1	0
COc1cc(NC(=O)c2ccccn2)ccc1Cl	132
CCCOc1ccc2nc(NC(=O)OC)sc2c1	106
CC(=O)Nc1c(I)c(C(=O)O)c(I)c(N(C)C(C)=O)c1I	4
CCNC1(C(N)=O)CCN(c2ncnc3c2nc(-c2ccccc2Cl)n3-c2ccc(Cl)cc2)CC1	18
Cn1c(=O)c2c(ncn2CC(=O)O)n(C)c1=O	7
CC(NC(=O)CCc1nc2ccccc2c(=O)[nH]1)c1ccccc1 (stereo not drawn)	5
CN(CCOc1ccc(CC(Nc2ccccc2C(=O)c2ccccc2)C(=O)O)cc1)c1ccccn1 (stereo not drawn)	1
O=C(O)c1ccccc1Nc1cccc(OCc2ccc3ccccc3n2)c1	25&29
COCCn1c2c([n+](Cc3cnccn3)c1C)C(=O)c1ccccc1C2=O	-81*
CN(C)CC/C=C1\c2ccccc2Sc2ccc(Cl)cc21	-58
Oc1cc2c(cc1O)CN(C(=S)NCCc1ccc(Cl)cc1)CCC2	7
O=C(O)CSc1nnc(Br)n1-c1ccc(C2CC2)c2ccccc12	0
Cc1ccc(C(=O)N(CCCN)[C@@H](c2nc3cc(Cl)ccc3c(=O)n2Cc2ccccc2)C(C)C)cc1	-73*
Cn1cnc2nc(NCCO)nc(NCc3ccccc3)c21	-3
CC(=O)OCC(=O)[C@@]1(O)CCC2C3CCC4=CC(=O)CC[C@]4(C)C3[C@@H](O)C[C@@]21C (stereo partly drawn)	-14&-6

A different layout for 6 compounds above:
| SMILES | T. gondii HeLa |
| --- | --- |
| O=C(O)c1ccccc1Nc1cccc(OCc2ccc3ccccc3n2)c1 | 25&29 |
| COCCn1c2c([n+](Cc3cnccn3)c1C)C(=O)c1ccccc1C2=O | -81* |
| CN(C)CC/C=C1\c2ccccc2Sc2ccc(Cl)cc21 | -58 |
| Oc1cc2c(cc1O)CN(C(=S)NCCc1ccc(Cl)cc1)CCC2 | 7 |
| O=C(O)CSc1nnc(Br)n1-c1ccc(C2CC2)c2ccccc12 | 0 |
| Cc1ccc(C(=O)N(CCCN)[C@@H](c2nc3cc(Cl)ccc3c(=O)n2Cc2ccccc2)C(C)C)cc1 | -73* |

3 entries already listed, ordered by count of non-hydrogen atoms, smallest number first.
SMILES	T. gondii HeLa
CN(C)CC/C=C1\c2ccccc2Sc2ccc(Cl)cc21	-58
CC(NC(=O)CCc1nc2ccccc2c(=O)[nH]1)c1ccccc1 (stereo not drawn)	5
Oc1cc2c(cc1O)CN(C(=S)NCCc1ccc(Cl)cc1)CCC2	7

Next part:
SMILES	T. gondii HeLa
O=C(O)c1cc(=O)[nH]c(=O)[nH]1	11
CCN(c1cc(-c2ccc(CN3CCOCC3)cc2)cc(C(=O)NCc2c(C)cc(C)[nH]c2=O)c1C)C1CCOCC1	1
COC(=O)[C@H](CC(C)C)NC(=O)c1ccc(NC[C@@H](N)CS)cc1-c1cccc2ccccc12	8
Cc1cccc(C)c1OCC(=O)N[C@@H](Cc1ccccc1)[C@@H](O)C[C@H](Cc1ccccc1)NC(=O)[C@H](C(C)C)N1CCCNC1=O	-8&-13
CCOC(=O)/C(=N/O)c1csc(N)n1	8
COC(=O)[C@H](Cc1cccc(C(=N)N)c1)[C@@H](C)NC(=O)c1ccc(-c2cc[n+]([O-])cc2)cc1	-7
C#Cc1cccc(Nc2ncnc3cc(OCCOC)c(OCCO)cc23)c1	-30
COc1cc(/C=C/C(=O)O[C@H]2CC[C@]34CC35CC[C@]3(C)[C@@H](C(C)CCC=C(C)C)CC[C@@]3(C)C5CCC4C2(C)C)ccc1O (stereo partly drawn)	10
CC(C)C[C@@H](NC(=O)OCC1c2ccccc2-c2ccccc21)C(=O)O	359&145
CNCCn1c(=O)c2cc(OC)c(OC)cc2c2cnc3cc4c(cc3c21)OCO4	-94*
CN1[C@@H]2CC[C@H]1CC(OC(=O)c1c[nH]c3ccccc13)C2 (stereo partly drawn)	7&9
Cc1ccc(S(=O)(=O)Nc2nc3ccccc3nc2Nc2ccc3nsnc3c2)cc1	1
C=CCSCC1Nc2cc(Cl)c(S(N)(=O)=O)cc2S(=O)(=O)N1 (stereo not drawn)	8&13
CC(=O)N[C@H](Cc1c[nH]c2ccccc12)C(=O)OCc1cc(C(F)(F)F)cc(C(F)(F)F)c1	6
Cc1cc(O)c2c(c1)C(=O)c1cc(O)cc(O)c1C2=O	40
CC(=O)O[C@H]1CC[C@@]2(C)C(C[C@@H](OC(C)=O)[C@]3(C)C2CC[C@@]2(C)[C@H](c4ccoc4)OC(=O)[C@H]4O[C@]423)C1(C)C (stereo partly drawn)	-28
CNC(=O)c1c(-c2ccc(F)cc2)oc2cc(N(CCO)S(C)(=O)=O)c(C3CC3)cc12	4
O=C(O)c1ccc(/C=C2/SC(=S)N(c3cccc(C(F)(F)F)c3)C2=O)cc1	4
COCCCN1CCC(NC(=O)c2cc(Cl)c(N)c3c2OCC3)CC1	7
CCOc1ccc(NC(=O)CC(C)O)cc1 (stereo not drawn)	10
O=C(/C=C\n1cnc(-c2cc(C(F)(F)F)cc(C(F)(F)F)c2)n1)NNc1cnccn1	-79*
Cc1noc(NS(=O)(=O)c2cccc3c(N(C)C)cccc23)c1C	8
Oc1c(Cl)cc(Cl)c2cccnc12	-90*
C=CCNC(N)=S	8
COC(=O)C[C@H]1C(C)(C)C2(O)OC34CC2C(=O)[C@]1(C)C3CC[C@]1(C)C4=CC(=O)O[C@H]1c1ccoc1 (stereo partly drawn)	-5
Cc1ccc([N+](=O)[O-])cc1S(=O)(=O)N(C)C	7&16
CCOC(=O)C(C)Oc1cccc2c(=O)n(CC(=O)Nc3ccc4c(c3)OCCO4)ccc12 (stereo not drawn)	15
CSc1nc(NC2CCCC2)c([N+](=O)[O-])c(NC2CCCC2)n1	18&15
CC(C)OC(=O)C1=CN(C(=O)c2ccc(F)c(F)c2)CC(C)(C)c2c1[nH]c1ccccc21	27
CN1C[C@H](C(=O)N[C@]2(C)O[C@@]3(O)[C@@H]4CCCN4C(=O)[C@H](Cc4ccccc4)N3C2=O)C[C@@H]2c3cccc4[nH]cc(c34)C[C@H]21	2&5
CC1COC2(CCN(c3nc(=O)c4cc(C(F)(F)F)cc([N+](=O)[O-])c4s3)CC2)O1 (stereo not drawn)	301
Cn1nc(C(C)(C)C)cc1C(=O)N[C@@H](Cc1cccc(Cl)c1)C(=O)NCC#N	12
CC1(CN)Cc2ccccc2C1	26
CN1c2cc3c(cc2N=C(c2ccc(C(=O)O)cc2)c2ccccc21)C(C)(C)CCC3(C)C	10
COc1ccc(C(=O)CCC(=O)O)c2ccccc12	2
CC(=O)O[C@H]1C[C@@H](OC(C)=O)C(C)(C)C2C[C@@H](O)[C@]3(C)C(CC[C@@]4(C)[C@H](c5ccoc5)OC(=O)[C@H]5O[C@]543)[C@]21C (stereo partly drawn)	6
CN1[C@@H]2CC[C@@H]1CC(OC(c1ccccc1)c1ccccc1)C2 (stereo partly drawn)	11
CN(C)CCCCC(=O)Nc1ccc(NC(=S)NC(=O)c2ccc(C(C)(C)C)cc2)cc1	78
CCCC(=O)Nc1ncnc2c1ncn2C1OC2COP(=O)(O)OC2C1OC(=O)CCC (stereo not drawn)	6
O=C(NC1CCN(Cc2ccccc2)CC1)c1ccc(I)cc1	21&22
COc1ccc(CN(CCN(C)C)c2ncccn2)cc1	11&10
NCC(=O)CCC(=O)OCc1ccccc1	16
CC(=O)[C@@]1(O)CC[C@H]2[C@@H]3C[C@H](C)C4=CC(=O)CC[C@]4(C)[C@H]3CC[C@@]21C	6
CCCCOc1ccc(OCCCN2CCOCC2)cc1	3
C=C1/C(=C\C=C2/CCC[C@]3(C)[C@@H]([C@H](C)CCCC(O)(C(F)(F)F)C(F)(F)F)CC[C@@H]23)C[C@@H](O)C[C@@H]1O	8
Cc1c(N)cccc1Cn1ccc(OCCc2cccs2)cc1=O	2
Cc1ccc(CC2(O)CCN(CCOc3ccc(O)cc3)CC2)cc1	-9&-6
CN1CCN(C(=O)c2cc3cc(Cl)ccc3[nH]2)CC1	13
CCOCCn1c(N2CCCN(C)CC2)nc2ccccc21	16
O=C(OCCO)c1ccccc1O	0
Continued.
SMILES	T. gondii HeLa
C=CC(=O)Nc1ccc2ncnc(Nc3ccc(OCc4cccc(F)c4)c(Cl)c3)c2c1	-52
N#C/C(=C/c1ccc(O)c(O)c1)C(=O)NCCCc1ccccc1	-11
CC(=O)CC(=O)O	-1
CC(=O)N[C@@H](CSC/C=C(\C)CC/C=C(\C)CCC=C(C)C)C(=O)O	7
NS(=O)(=O)c1cc(Cl)c(Cl)c(S(N)(=O)=O)c1	4
N[C@@H](CSCCCO)C(=O)O	5&10
OC[C@H]1O[C@@H](c2ccc(F)c(Cc3cc4ccccc4s3)c2)[C@H](O)[C@@H](O)[C@@H]1O	5
Oc1cccc(O)c1	11&10
CCCC(=O)N1CCCN(c2nc(N)c3cc(OC)c(OC)cc3n2)CC1	13
NC1CCN(c2c(F)cc3c(=O)c(C(=O)O)cn(C4CC4)c3c2Cl)C1 (stereo not drawn)	-79*
NC(=O)c1ccc(I)c([N+](=O)[O-])c1	14
[Cl][Ru]([Cl])([Cl])[Cl].c1ccc2[nH]ncc2c1.c1ccc2[nH]ncc2c1	8
C[C@]12CCC3c4ccc(OC(=O)c5ccccc5)cc4CCC3C1CCC2O (stereo partly drawn)	?
CN[C@H](CNC(=O)N1CCC[C@@H]([C@@H](OCCNC(=O)OC)c2cccc(Cl)c2)C1)C[C@H]1CCCOC1	7
CC(=O)c1cc([N+](=O)[O-])c(Sc2cccc(Cl)c2Cl)s1	14
COc1ccc2c(OCc3nnc4ccc(-c5ccccc5)nn34)ccnc2c1	5
NC(=S)N/N=C/c1ncccc1N	-83*
C=CCN1CCc2cc(O)c(O)cc2C(c2ccccc2)C1 (stereo not drawn)	-1&3
CC(C)=CCC/C(C)=C/C=C/C(C)=C/C=C/C(C)=C/C=C/C=C(C)/C=C/C=C(C)/C=C/C=C(\C)CCC=C(C)C	-16
O=c1[nH]c(=O)n([C@H]2CCCO2)cc1F	-74*
C[C@H](NC(=O)/C(C#N)=C/c1cccc(Br)n1)c1ccccc1	-74*
CC(C)[C@@H]1CC[C@@H](C)C[C@@H]1P(=O)(c1ccccc1)c1ccccc1	11&24
CCOc1ccc2nc3cc(N)ccc3c(N)c2c1	6&-14
O=C(O)CCNC(=O)c1ccc(N=Nc2ccc(O)c(C(=O)O)c2)cc1	22

Reprinted at random: 3 entries already listed, in no set order.
SMILES	T. gondii HeLa
O=C(O)CCNC(=O)c1ccc(N=Nc2ccc(O)c(C(=O)O)c2)cc1	22
C[C@H](NC(=O)/C(C#N)=C/c1cccc(Br)n1)c1ccccc1	-74*
CCOc1ccc2nc3cc(N)ccc3c(N)c2c1	6&-14

This is a subset. The share of hits here may be higher or lower than overall.
